High-throughput results from PubChem BioAssay.
Vaccinia mCherry – qHTS for Stage-Specific Inhibitors of Vaccinia Orthopoxvirus: mCherry Reporter Primary qHTS; Vaccinia virus mCherry reporter infection, fluorescence; about a quarter of the inactives have no number; Potency, µM (top dose mostly 36.5 µM), without a hit: at the top dose activity change, negative = inhibition, hits mostly inhibitors; actives 0.63% (n = 310,000); active = well fitted inhibition curve with a large enough effect; inconclusive = small, poorly fitted or top-dose-only effect; inactive = no such curve, though single readings can be large or run the other way; tested in A549 cells; further: nearly all actives have a fitted effect of over 35% in size; inactives centre near -10
VACV Venus inh – qHTS for Stage-Specific Inhibitors of Vaccinia Orthopoxvirus: Venus Reporter Primary qHTS; Vaccinia virus Venus reporter expression, fluorescence; Potency, µM (series often up to 36.5 µM), inactives show at the highest dose activity change, negative = inhibition, most hits filed as inhibitors; actives 0.46% (n = 330,000); AID 720580, 2013; active means well fitted inhibition curve with a large enough effect; inconclusive means small, poorly fitted or top-dose-only effect; inactive means no such curve, though single readings can be large or run the other way; tested in A549 cells; further: nearly all actives have a fitted effect of over 30% in size; inactives centre near -10
Active calls of the source: *; i = inactive; u = inconclusive; x = no result given; & = joins results of further samples; [ ] = dose if it differs, or a comment. On the % scale 0 is the no-effect control and ±100 the full control effect; potency means the concentration at half of the fitted maximal effect.

SMILES | Vaccinia mCherry | VACV Venus inh
COc1ccc(C(=O)NCc2ccc3c(c2)CCN3C(=O)c2ccc(Cl)cc2)c(OC)c1 | i | -9%
Cc1ccc(Cn2nnc3c(=O)n(CC(=O)OCc4ccccc4)cnc32)cc1 | -9% | -9%
COc1ccc(C(=O)/C=C/c2ccccc2)c(OC)c1 | u | u
Cc1cccc(C)c1NC(=O)C(c1ccccc1)N1CCN(C(=O)c2ccco2)CC1 (configuration not stated) | i | -13%
CN1CCN(c2nc(Nc3ccccc3)nc(N)c2[N+](=O)[O-])CC1 | -11% | -28%
CCc1cccc(CC)c1-n1c(SCC(=O)N2CCc3ccccc3C2)nnc1-c1cccnc1 | -29% | -19%
CCCCCC(=O)N1C[C@H](n2cc(C3CC3)nn2)[C@@H](O)C[C@@H]1c1ccc(Cl)cc1 | i | -21%
O=C(NCCc1ccc(F)cc1)C(=O)NCC(c1ccc2c(c1)OCO2)N1CCOCC1 (configuration not stated) | -20% | -20%
O=C(COc1ccc(S(=O)(=O)NC2CCCCC2)cc1)N1CCN(c2ccc(F)cc2)CC1 | -21% | -24%
COc1ccccc1N1CCN(CCN(C(=O)C2CCCCC2)c2ccccn2)CC1 | -13%&-22% | -13%&-21%
COc1ccc(C)cc1CN1C(=O)c2ccccc2C1=O | -19% | 12%
CC(C)N(Cc1nc(-c2ccccc2)no1)C(=O)CN1C(=O)c2ccccc2C1=O | -15% | -6%
CCN(CC)c1ccc(NC(=O)c2sc3nc4c(cc3c2N)CN(C)CC4)cc1 | -4% | -11%
CCCS(=O)(=O)NC(=O)C1(C)CCCN(C(=O)c2cc(C(C)(C)C)nn2C)C1 (configuration not stated) | i | -2%
CCOC(=O)Cn1nnc(-c2cccc(OC)c2)n1 | -16% | -3%
Cc1ccc(C)c(N2CCN(C(=O)c3cccc(-n4c(C)nc5cccnc54)c3)CC2)c1 | -25% | -21%
O=C(Nc1ccccc1)N(Cc1cccs1)c1ccc(F)cc1 | -7% | 0%
CNC(=O)c1cc(S(=O)(=O)NC2CCCCCC2)ccc1C | i | -11%
O=C(CN1CCN(c2ccccn2)CC1)NC(=O)NC1CCCCC1 | x | u
Cc1ccc2nc(C3CCCCC3)c(Cc3ccccc3C(F)(F)F)n2c1 | i | -20%
CCOc1ccc(NC(=O)N(c2ccccc2)c2ccccc2)cc1 | -2% | -8%
COc1cccc(CN2CCN(Cc3cc(OC)c(OC)cc3OC)CC2)c1 | -14% | -11%
CN(Cc1ccccc1)C(=O)COC(=O)Cc1ccc(Cl)cc1 | i | -13%
Cc1cccc(C)c1OCC(=O)Nc1ccc(NC(=O)c2ccco2)cc1 | i | -13%
COc1ccc(NC(=O)C2CCOC2=O)cc1 (configuration not stated) | -13% | -11%

2 records picked at random from the list so far, as already listed:
SMILES | Vaccinia mCherry | VACV Venus inh
O=C(COc1ccc(S(=O)(=O)NC2CCCCC2)cc1)N1CCN(c2ccc(F)cc2)CC1 | -21% | -24%
CC(C)N(Cc1nc(-c2ccccc2)no1)C(=O)CN1C(=O)c2ccccc2C1=O | -15% | -6%

Further entries follow.
SMILES | Vaccinia mCherry | VACV Venus inh
COc1ccc(CC(=O)Nc2ccccc2C(C)=O)cc1S(=O)(=O)N1CCOCC1 | -17% | -21%
COc1ccc(/C=C2/C=Cc3ccccc32)cc1 | -13% | 14%
CC(=O)C1=C(C)NC(SCC(=O)c2ccccc2)=C(C#N)C1CC(C)C (configuration not stated) | x | -9%
O=C(O)CN1C2=NCCCN2c2ccccc21 | -15% | -6%
O=C(Nc1ccc(F)cc1F)C1CCN(S(=O)(=O)c2cccnc2)CC1 | -11% | -9%
O=c1c2ccccc2nc(COc2ccccc2)n1/N=C/c1ccco1 | x | -10%
O=C(O)CCc1nc(-c2cccs2)no1 | i | -4%
O=C(NC1CCCCC1)C1COc2ccccc2O1 (configuration not stated) | -19% | -22%
CCOCC(=O)Nc1cc(C(=O)OC)ccc1C(=O)OC | -7% | 1%
Cc1nc2ccccn2c(=O)c1NC(=O)c1ccc(Br)o1 | -22% | -9%
C[C@]12C=CC(=O)C=C1CC[C@@H]1[C@@H]2[C@@H](O)C[C@@]2(C)[C@H]1CC[C@]2(O)C(=O)COC(=O)CCC(=O)O | -4% | -14%
Cc1occc1C(=O)/C(C#N)=C/c1ccc(O)c(Br)c1 | -1% | 4%
CCCCNC(=O)[C@@H]1CC=C[C@@H]2CCN(C3CCCCC3)C(=O)[C@@H]21 | i | -2%
COC(=O)C1=C(c2ccc(-c3ccccc3)c(F)c2)C[C@@H]2CC[C@H]1N2C(=O)NCc1cc(C)oc1C(F)(F)F | -15% | u
Cc1ccc(-c2cc(NC(=O)c3cccc(C)c3)on2)cc1 | i | -27%
CCOc1ccc(Nc2cc(C)nc3c(C)cccc23)cc1 | -19% | -17%
CCCc1c(C(=O)Nc2cc(C)on2)cnn1-c1ccccc1 | i | -10%
CCOc1ccc(Sc2cc(C(=O)NCc3ccc(F)cc3)c3ccccc3n2)cc1 | -21% | -26%
COc1ccc(NC(=O)Nc2cc3oc4ccccc4c3cc2OC)cc1 | -27% | u
Cc1nc2ccccc2nc1OCC(=O)Nc1ccc(F)cc1 | 0% | 2%
COC(=O)C1CCN(C(=O)/C=C/c2ccc3c(c2)OCO3)CC1 | -1% | -23%
O=C(Oc1ccc2ccc(=O)oc2c1)c1cccs1 | -16% | -22%
CC(=O)N1CCC2(CC1)C(C#N)=C(N)OC1=C2C(=O)CC(C)(C)C1 | i | -14%
O=C(c1ccc2c(=O)n(Cc3ccccc3)c(=S)[nH]c2c1)N1CCCC1 | -9% | -4%
Cc1nn(CCO)c(N)c1C1(O)C(=O)Nc2c(Cl)cc(Cl)cc21 (configuration not stated) | -15% | 2%
Continued:
SMILES | Vaccinia mCherry | VACV Venus inh
CCS(=O)(=O)N1Cc2ccccc2CC1C(=O)NCc1cccc(OC)c1 (configuration not stated) | -5% | -10%
CC(C)CCC(CC(C)O)c1n[nH]c(=S)n1-c1ccccc1 (configuration not stated) | -20% | -15%
CCOc1ccc(C(=O)N2CC(=O)Nc3ccc(C)cc3C2c2ccc(F)cc2)cc1OCC (configuration not stated) | i | -6%
CC(=O)c1ccc(NS(=O)(=O)c2ccc3c(c2)N(C)CCO3)cc1 | -1%[7.34 µM] | 24%[7.34 µM]
CCCNC(=O)c1c(C)cc(=O)oc1C | -4% | -14%
Cc1ccc2c(c1)cc1c(=O)n(CC(=O)N(C)c3ccccc3)nc(C)n12 | -13%&-11% | -7%&-10%
Cc1ccc(/C=N/Nc2ccc3c(C(F)(F)F)cc(C(F)(F)F)nc3n2)cc1 | x | 0%
O=C(COC(=O)c1nc(Cl)ccc1Cl)NCCc1ccccc1 | -3% | -6%
CCC1CCCCN1C(=O)CSc1nnc(CNC(=O)COc2ccc(Cl)cc2)o1 (configuration not stated) | -27% | -20%
O=[N+]([O-])c1ccc(N2CCOCC2)cc1NCCCO | -8% | -6%
CCOC(=O)Cn1c(=O)n(CC2CCCO2)c2nc(-c3ccccc3)nc(C(N)=O)c21 (configuration not stated) | -2% | 8%
CNCC(O)CN1CCN(c2ccccc2OC)CC1 (configuration not stated) | i | -7%
O=C1CC(c2cccs2)CC(O)=C1C=NCCN1CCNCC1 (configuration not stated) | -3% | -16%
C=C(C)c1cccc(C(C)(C)NC(=O)N(C)C2CCN(C)CC2)c1 | i | -16%
O=c1c(-c2ccccc2)c(O)nc2ccccn12 | i | -15%
O=[N+]([O-])c1cc(Cl)ccc1NCCc1ccccn1 | 7% | -9%
O=C(Nc1ccc(OC(F)(F)F)cc1)C1=NCCN1 | i | -16%
CCNC(=O)N1c2ccc(OCC)cc2C(C)=CC1(C)C | -18% | -18%
Cc1noc(C)c1-c1nccc(N2CCNCC2)n1 | 3% | 1%
COc1ccc(NC(=O)CN2C(=O)COc3ccc(S(=O)(=O)N4CCCCC4)cc32)cc1Cl | -1% | -5%
CC(C)c1ccc(C(=O)CN2C(=O)NC3(CCc4ccccc43)C2=O)cc1 (configuration not stated) | -16% | u
Cc1nc(SCCOc2ccc(Cl)cc2)[nH]c(=O)c1Cc1ccccc1 | -19% | -27%
COc1cccc(CNC(=O)c2cccc(NC(=O)c3nsc4ccccc34)c2)c1 | -17% | -21%
O=C(NCc1cccnc1)c1cnc2ccccc2n1 | i | -5%
COc1ccc2c(C)cc(SCn3nnc4ccccc4c3=O)nc2c1 | i | -7%

Compound profiles (already shown). Order of values: Vaccinia mCherry, VACV Venus inh
Entry for CCC1CCCCN1C(=O)CSc1nnc(CNC(=O)COc2ccc(Cl)cc2)o1 (configuration not stated) = -27%, -20%
Entry for O=[N+]([O-])c1cc(Cl)ccc1NCCc1ccccn1 = 7%, -9%
Entry for COc1ccc(NC(=O)CN2C(=O)COc3ccc(S(=O)(=O)N4CCCCC4)cc32)cc1Cl = -1%, -5%
Entry for CCNC(=O)N1c2ccc(OCC)cc2C(C)=CC1(C)C = -18%, -18%
Entry for COc1cccc(CNC(=O)c2cccc(NC(=O)c3nsc4ccccc34)c2)c1 = -17%, -21%

Going on with the list.
SMILES | Vaccinia mCherry | VACV Venus inh
CC/C(=N\N1CCCCCC1)c1c(O)n(-c2ccc(C)cc2)c(=O)[nH]c1=O | i | -18%
O=C(C1CCCCC1)N1CCC(c2nc3c(nnn3Cc3ccccc3Cl)c(=O)[nH]2)CC1 | -2%[7.34 µM] | 1%[7.34 µM]
COc1ccc(S(=O)(=O)N(CC(C)C)C2CCS(=O)(=O)C2)cc1OC (configuration not stated) | 0% | -12%
Cc1cc(Br)cc(C)c1NC(=O)c1sc2ncn(Cc3cccc(F)c3)c(=O)c2c1C | -19% | -12%
CCC(=O)N=c1sc2c(C)cc(C)cc2n1CC(=O)OC | i | -14%
S=C(Nc1ccccc1Oc1ccccc1)NC1CCCC1 | -10% | -15%
CCCCCC(=O)N1C[C@@H](n2cc(C3CC3)nn2)[C@H](O)C[C@@H]1c1ccc(OC)cc1 | -10% | -12%
O=[N+]([O-])c1cc(Cl)ccc1N1CCCC1 | -3% | -9%
CS(=O)(=O)c1ccccc1C(=O)NC1CCCc2ccccc21 (configuration not stated) | 0% | -9%
COc1ccc(C(=O)N2CCCC2(C)C(=O)NCC(C)C)cc1C(F)(F)F (configuration not stated) | 18% | -1%
CC(=O)c1ccc(NC2=NCCCS2)cc1 | -10% | -16%
CNc1oc(-c2cccs2)nc1S(=O)(=O)c1ccccc1 | -14% | -11%
CC(C)(C)C1CCc2c(C(=O)NNC(=O)CCC(=O)O)csc2C1 (configuration not stated) | -14% | 0%
CCOC(=O)c1ccc(NC(=O)CCc2c(C)nc3nc[nH]n3c2=O)cc1 | -3% | 0%
Cc1cc(SCC(=O)NCc2ccccc2Cl)nc(=O)[nH]1 | -9% | 6%
CCn1c(=O)c(C(=O)NNC(=O)c2ccccc2)c(O)c2ccccc21 | -17% | -6%
CC(C)Oc1ccc(C(=O)Nc2cc(=O)n(C)c(=O)n2C)cc1 | i | -2%
O=C(Nc1ccc2c(c1)OCO2)c1cc(C2CCCCN2S(=O)(=O)c2ccccc2)on1 (configuration not stated) | -2% | -7%
CCOC(=O)c1[nH]c2ccc(F)cc2c1NC(=O)Nc1ccccc1OC | x | -9%
O=C(NCCCN1CCOCC1)c1cc(-c2ccc(Cl)c(Cl)c2)on1 | -16% | -6%
C/C(=N\NC(=O)c1nnn(-c2nonc2N)c1C(C)C)c1ccncc1 | -1% | -11%
Cc1ccc2cc3c(NC(=O)CC(C)C)nn(C)c3nc2c1 | x | -10%
O=C(O)CN1CCN(Cc2cccc(Cl)c2)C1=O | i | -8%
CCC(C(=O)O/N=C(\N)c1ccc(Cl)cc1)c1ccccc1 (configuration not stated) | -5% | 3%
COc1ccc(-c2nc3ccccc3s2)cc1NC(=O)c1ccccc1OC | -9% | -5%

By substructure: those above containing a cyano group.
SMILES | Vaccinia mCherry | VACV Venus inh
CC(=O)C1=C(C)NC(SCC(=O)c2ccccc2)=C(C#N)C1CC(C)C (configuration not stated) | x | -9%
Cc1occc1C(=O)/C(C#N)=C/c1ccc(O)c(Br)c1 | -1% | 4%
CC(=O)N1CCC2(CC1)C(C#N)=C(N)OC1=C2C(=O)CC(C)(C)C1 | i | -14%

New compounds follow:
SMILES | Vaccinia mCherry | VACV Venus inh
Cc1nc2ccccc2c(=O)n1NC(=O)C1CCC(C(C)(C)C)CC1 (configuration not stated) | i | -24%
CC1=NN(C(=O)c2ccc(Br)cc2)C(O)(c2ccccc2)C1 (configuration not stated) | -15% | -2%
COc1ccc2c(c1)-c1nc(NC(=O)c3ccc(OC)c(Br)c3)sc1CC2 | -18% | -9%
O=C1C(Nc2ccccc2)=C/C(=N/S(=O)(=O)c2cccs2)c2ccccc21 | 8.9µM* | 10µM*
CCc1cccc(C)c1NC(=O)C1CCN(S(=O)(=O)Cc2ccccc2)CC1 | 0% | -4%
O=C(C[C@H]1C[C@H](C(=O)N2CCOCC2)[C@@]2(CCC3CCCC3)c3[nH]c4ccc(Cl)cc4c3CCN2C1=O)NCc1ccco1 | 7.1µM* | u
CCn1c(=O)c2cc(C(=O)NCCCN(C)Cc3ccccc3)sc2c2ccccc21 | -18% | -13%
Cc1ccc(CSc2nc3ccccc3cc2C=O)cc1 | x | u
O=C(Nc1ccc2c(c1)OCCO2)C(C1CC1)n1c(=O)c(-c2cc3ccccc3[nH]2)nc2ccccc21 (configuration not stated) | u | -27%
CC(=O)Nc1ccc(NC(=O)C/C(C)=N/NC(=O)C(=O)Nc2ccc(C)c(Cl)c2)cc1 | -17% | -5%
